Screens deposited in PubChem by several laboratories.
INS promoter inh: inhibitors of insulin promoter-driven GFP, primary screen, imaging, TRM-6 cells (human fetal islet line), eGFP reporter, cell count; reporter expression induced with tamoxifen; inhibition, % at 2 µM; 130,000 compounds, 0.9% hits;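 active = inhibition above the mean plus 3 SD, with well images judged a real hit on visual review, cut at about 60% in these data, passing the limit was not always enough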
RGS16-Gao HTS: modulators of RGS16 binding to Galphao, primary screen, biochemical, human proteins, multiplexed bead flow cytometry | 220,000 compounds, 0.38% hits | Regulator of G-protein signaling 16 (Homo sapiens) + Guanine nucleotide-binding protein … | binding response (% of control), % at 10 µM | bead-based flow cytometry RGS16-Galphao binding, fluorescence; actives lie on both sides | AID 1441, 2008;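 active = below 25% or above 175%, edge rows of some plates excepted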;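 note: Galphao activated by GDP with aluminum fluoride before binding; 100% = wells without compound and 0% = beads without RGS; some results beyond the cut were filed as inactive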
Target sequence (O15492 whole entry, looked up): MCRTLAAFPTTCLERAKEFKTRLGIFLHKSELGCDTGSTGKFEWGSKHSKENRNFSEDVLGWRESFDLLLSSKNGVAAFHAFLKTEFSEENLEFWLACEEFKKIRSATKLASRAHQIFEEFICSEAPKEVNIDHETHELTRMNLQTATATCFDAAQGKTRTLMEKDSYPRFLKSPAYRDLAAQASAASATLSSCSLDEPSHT
Target sequence (P09471 whole entry, looked up): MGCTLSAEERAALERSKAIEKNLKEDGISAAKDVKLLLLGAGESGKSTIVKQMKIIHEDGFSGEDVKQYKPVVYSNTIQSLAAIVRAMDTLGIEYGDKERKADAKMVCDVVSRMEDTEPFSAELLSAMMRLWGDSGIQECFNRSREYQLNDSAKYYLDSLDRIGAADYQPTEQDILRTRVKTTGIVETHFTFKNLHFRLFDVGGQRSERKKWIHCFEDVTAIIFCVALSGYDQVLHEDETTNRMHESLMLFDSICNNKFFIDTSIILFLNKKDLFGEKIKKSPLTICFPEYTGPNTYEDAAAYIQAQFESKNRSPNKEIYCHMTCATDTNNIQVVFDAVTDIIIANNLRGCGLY
PKD1 inh: inhibitors of human PKD1 kinase, biochemical, fluorescence polarization; Serine/threonine-protein kinase D1 (Homo sapiens), Q15139; PKD1 kinase fluorescence polarization assay; inhibition, %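 (about 10 µM by stock and volumes)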; 200,000 compounds, 0.056% hits; AID 797, 2007;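 active = inhibition of 50% or more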;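 note: controls were vehicle for no effect and a reference inhibitor for full effect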
HSV augment: enhancers of HSV replication in host cells, fold increase, host cell viability; 220,000 compounds, 0.005% hits; HSV replication augmentation in cells; maximum fold increase;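 active = peak rise of 1.5-fold or more in the series; tested in PC3 cells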;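 note: first round at 10 µM; read as green reporter fluorescence; hits show the peak of a series up to 25 µM; 1 = signal of infected wells without compound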
GALR2 agonist: GALR2 receptor agonists, primary screen, cell-based | Galanin receptor type 2 (Homo sapiens), O43603 | GALR2-expressing cells, agonist activation read-out | activation, %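 (tested at 5 µM)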 | 140,000 compounds, 0.48% hits;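 active = above mean plus 3 SD of all compounds, about 5% in these data, not always enough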;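 note: 0% = vehicle buffer wells and 100% = reference agonist at full effect; tested in CHO reporter cells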
Target sequence (O43603 whole entry, looked up): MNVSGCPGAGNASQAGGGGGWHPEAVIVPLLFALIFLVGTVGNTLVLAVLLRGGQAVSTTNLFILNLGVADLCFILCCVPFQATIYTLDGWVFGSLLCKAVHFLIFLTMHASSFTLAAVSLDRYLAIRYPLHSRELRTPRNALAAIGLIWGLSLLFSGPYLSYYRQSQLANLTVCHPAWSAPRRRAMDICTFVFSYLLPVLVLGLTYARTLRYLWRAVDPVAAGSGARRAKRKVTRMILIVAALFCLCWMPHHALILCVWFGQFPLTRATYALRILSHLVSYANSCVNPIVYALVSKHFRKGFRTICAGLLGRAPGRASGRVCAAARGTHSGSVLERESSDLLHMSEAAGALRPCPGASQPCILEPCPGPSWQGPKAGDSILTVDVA
INS promoter inh cell count: second read-out of INS promoter inh, no call of its own (marks repeat the call); normalized cell count, %; measured here: cell count, toxicity; reference of the scale not given here;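 cells exposed to compound for 48 h; stained nuclei by imaging scaled within each plate; lower means fewer cells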
HSV augment primary fold: further read-out of HSV augment, marked with its call; fold increase; compound at 10 µM; measured here: primary screen fold increase 10 uM; tested in PC3 cells;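 GFP signal in the first replicate; 1 = infected wells without compound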
The depositor's hits bear a star; i = inactive; . = no result given; & = joins results of further samples.

Values run as follows: INS promoter inh, INS promoter inh cell count, RGS16-Gao HTS, PKD1 inh, HSV augment, HSV augment primary fold, GALR2 agonist
> COc1ccc(C(=O)Nc2cccc(-c3nc4ncccc4o3)c2C)cc1OC
  -37, 41, 112, -3, i, 1, -0.8
> O=C(C1COc2ccccc2O1)N1CCN(c2ccccc2)CC1 (stereo unspecified)
  -12, 81, 103, -15, i, 0.93, -0.6
> CN(CCO)c1c2c(nc3cc(-c4cccc(F)c4)nn13)CCCC2
  -95, 143, 104, -2, i, 1, 0.6
> CCn1c(=O)c(C(=O)CN2CCN(Cc3ccc4c(c3)OCO4)CC2)c(N)n(Cc2ccccc2)c1=O
  27, 108, 101, -5, i, 0.84, .
> O=C(CCn1c2c(c3ccccc31)CCCC2)NNC(=O)c1ccccc1[N+](=O)[O-]
  ., ., 101, 0, i, 1, -0.5
> N#Cc1ccc(-c2cccs2)nc1SCc1cccnc1
  ., ., 85, ., i, 0.79, .
> COCCCNc1nc(-c2ccncc2)nc2ccccc12
  ., ., 101, 7, i, 1, 1.1
> CC1SCC(=O)N(CC(=O)Nc2ccc3c(c2)OCCO3)C1=O (stereo unspecified)
  -6, 92, 111, 1, i, 1, .
> CCc1cccc(CC)c1NC(=O)c1cccc(N)c1
  15, 86, 101, -4, i, 0.98, -0.4
> COc1cc(C(=O)O/N=C2\C=CC(=O)C=C2C)cc(OC)c1OC
  ., ., 58, -16, i, 1, -1.2
> CC(C)(C)c1ccc(NC(=O)NC2CCCc3ccccc32)cc1 (stereo unspecified)
  ., ., 107, ., i, 0.74, .
> O=C1OC(c2ccc(Cl)cc2)=N/C1=C\c1cccnc1
  ., ., 115, 0, i, 0.92, -2.2
> CCOc1cc(NC(=S)NCCCN2CCOCC2)c(OCC)cc1NC(=O)c1ccc(C)cc1
  38, 67, 102, -1, i, 0.8, .
> Cc1c(/C=N/NC(=O)C(NC(=O)c2ccc3c(c2)OCO3)C(C)C)c2ccccc2n1C (stereo unspecified)
  -27, 81, 82, 4, i, 0.89, -2.5
> CC(C)(SC(=S)N1CCCCCC1)C(=O)O
  ., ., 45, 2, i, 0.85, .
> CCCCC1CCC(C(=O)NCc2ccc3c(c2)OCO3)CC1 (stereo unspecified)
  3, 130, 104, -5, i, 0.84, -2.6
> COc1cccc(CNC(=O)Nc2cccs2)c1
  -72, 142, 98, 2, i, 1, -2.3
> Cc1ccc(OCCOC(=O)c2nc3nccc(C)n3n2)cc1
  ., ., 111, -12, i, 0.93, .
> COc1ccccc1NC(=O)CSc1nnc(C)n1CC1CCCO1 (stereo unspecified)
  -300, 29, 105, -11, i, 1, -2.3
> N#Cc1cnn(-c2ccccc2)c1NC(=O)CN1CCOCC1
  ., ., 94, ., i, 1.1, .
> COC(C(=O)Nc1c(F)cccc1F)c1ccccc1 (stereo unspecified)
  ., ., 108, -2, i, 1, .
> Cc1cccc(C(=O)NCCN2CCN(c3ccccc3)CC2)c1
  11, 72, 101, 2, i, 0.99, -1.0
> O=C(CSc1nc2ccccc2o1)NCc1ccco1
  -46, 99, 99, 5, i, 0.91, -1.6
> O=C(Oc1ccccc1)n1c(=S)oc2ccccc21
  -10, 113, 109, -8, i, 0.95, 0.6
> Cc1ccc(Cl)cc1N(Cc1ccc(C(=O)NCc2cccnc2)cc1)S(=O)(=O)c1ccccc1
  15, 50, 99, -5, ., ., -1.3
> CCOC(=O)c1cc(-c2ccccc2)n(CC(=O)Nc2ccc(OCC)cc2)c1C
  -60, 99, 101, -16, i, 0.93, -0.6
> Cc1cccc(C(=O)Nc2cccc(Br)c2)c1[N+](=O)[O-]
  ., ., 97, -6, i, 0.97, .
> O=C(O)CSCC(=O)N1CCN(S(=O)(=O)c2cc(Cl)cc(Cl)c2)CC1
  ., ., 99, ., i, 1.1, .
> CCc1cccc(NC(=O)C2CCN(S(=O)(=O)c3c(C)noc3C)CC2)c1
  -70, 93, 106, 0, i, 1.1, .
> COc1cccc2cc(C(=O)N(Cc3cccs3)CC3CCCO3)c(=O)oc12 (stereo unspecified)
  ., ., 95, -9, i, 1, .
> Cc1nnc(NC(=O)c2ccc(S(=O)(=O)C(F)F)cc2)s1
  ., ., 97, ., i, 1, .
> Cc1ccc(Cn2nnc3c(=O)n(Cc4cc(C)ccc4C)cnc32)cc1
  50, 92, 106, -4, i, 0.88, -1.6
> CCCNC(=O)CSC1=N/C(=C/c2ccc(F)cc2)C(=O)N1CC
  ., ., 118, -5, i, 0.94, -0.5
> O=C(O)CCc1nc2cccnc2n1Cc1ccccc1
  21, 95, 97, 2, i, 1.1, -0.4
> CC(C)CN1C(=O)c2ccc(C(=O)NCc3ccc4c(c3)OCO4)cc2C1=O
  -53, 170, 102, -2, i, 1.2, -2.3
> N#Cc1c(-c2ccc(F)cc2)cc(-c2ccccc2)nc1SCC(=O)NCC(=O)O
  ., ., 94, ., i, 1.1, .
> CCOC(=O)Cn1nnc(-c2ccc([N+](=O)[O-])cc2)n1
  ., ., 71, -5, i, 1.1, .
> CC1CCN(C(=O)CSc2nnc(Cc3ccccc3)o2)CC1
  ., ., 100, -5, i, 0.81, -0.9
> CN(C)CCNC(=O)C(c1ccccc1)c1ccccc1
  ., ., 105, ., i, 1, .
> O=C(NCCO)c1cc2ccccc2cc1O
  -8, 96, 97&103, 2, i, 0.97&1.2, -1.6
> O=[N+]([O-])c1c(Nc2ccccc2O)ccc2nonc12
  0, 85, 101, 1, i, 0.94, .
> Cc1ccc(S(=O)(=O)/N=C2/C=C(Sc3ncn[nH]3)C(=O)c3ccccc32)cc1
  -210, 18, 15*, -10, i, 1, 0.1
> O=C(C1CCCC1)N(c1ccccc1)C1C=CS(=O)(=O)C1 (stereo unspecified)
  -19, 121, 107, -5, i, 0.64, -0.7
> Cc1cc2cc3c(cc2nc1SCC(=O)Nc1ccccc1)CCC3
  -7, 120, 100, 1, i, 1, -2.2
> [N-]=[N+]=CC(=O)CC(c1ccccc1)N1C(=O)c2ccccc2C1=O (stereo unspecified)
  -15, 136, 102, -9, ., ., -4.3
> COc1ccc(CCC(=O)NCc2cn3ccsc3n2)cc1
  -256, 69, ., -3, i, 0.75, -3.5
> COC(=O)c1ccccc1Oc1ccc(NC(=O)CCCl)cc1
  ., ., 102, -6, i, 0.94, .
> O=C(O)c1ccc(C(=O)c2ccc3c(c2)C(=O)N(CC2CCCO2)C3=O)cc1 (stereo unspecified)
  43, 148, 111, -6, i, 0.93, .
> Cc1sc2ncnc(Sc3ccccc3C(=O)Nc3ccc(C#N)cc3)c2c1C
  47, 161, 109, 4, i, 1.1, 1.1
> COc1ccccc1NS(=O)(=O)c1cc(NC(=O)Nc2ccccc2)ccc1N1CCCCC1
  36, 74, 47, 5, i, 0.82, 0.3

The results go on.
Values run as follows: INS promoter inh, INS promoter inh cell count, RGS16-Gao HTS, PKD1 inh, HSV augment, HSV augment primary fold, GALR2 agonist
> CC1CC2(CCCC2)N(C(=O)c2ccccc2)Cc2ccccc21 (stereo unspecified)
  10, 125, 64, 13, i, 1.1, -1.1
> Cc1nnc(SCC(=O)NNC(=O)C(C)C)[nH]c1=O
  37, 104, 100, -8, i, 0.99, -0.7
> O=C(Nc1ccc(N2CCN(C(=O)c3ccccc3)CC2)c(Cl)c1)c1ccc(Br)o1
  29, 74, 107, -6, i, 0.78, -0.2
> COCCn1c(SCC(=O)NNC(=O)Cc2ccccc2)nc2ccccc2c1=O
  ., ., 98, -6, i, 0.91, .
> COc1ccc(NC(=S)/N=C(\N)Nc2nc(C)c3ccccc3n2)cc1
  ., ., 85, ., i, 0.9, .
> CC(c1ccco1)N(C(=O)C12CC3(C)CC(C)(CC(C)(C3)C1)C2)c1ccccn1 (stereo unspecified)
  54, 136, 98, -5, i, 1.1, -0.7
> Cc1ccc(OCC(=O)N/N=C/c2cccn2C)cc1C
  ., ., 92, ., i, 0.73, .
> CCOC(=O)COc1c(/C=N\O)cc(Cl)cc1OC
  -73, 113, 111, -8, i, 0.93, .
> CN1c2ccccc2C(=O)NC1c1ccc([N+](=O)[O-])s1 (stereo unspecified)
  ., ., 105, ., i, 0.89, .
> COc1ccc(OC)c(C(c2nnnn2C2CCCC2)N2CCN(c3ccc(F)cc3)CC2)c1 (stereo unspecified)
  ., ., 100, 0, i, 0.9, -1.8
> O=C(c1ccc2c(c1)OCO2)N1CCN(c2ccc(C(F)(F)F)cn2)CC1
  22, 117, 19, -7, i, 0.92, -1.6
> COC(=O)c1c(N2C(=O)CC(Sc3ccccc3C(=O)O)C2=O)sc2c1CCCC2 (stereo unspecified)
  33, 69, 101, -6, i, 1.1, .
> COc1ccc(-c2cc3nnc(-c4ccccc4)nc3s2)cc1
  13, 217, 61, -4, ., ., -0.1
> Cc1ccc(/C(O)=C2/C(=O)C(=O)N(CCN3CCOCC3)C2c2ccccn2)cc1 (stereo unspecified)
  i, 34, 106, -5, i, 1.1, -0.9
> Cc1cc(F)ccc1NCc1ccc([N+](=O)[O-])cc1
  -53, 96, 97, -5, i, 1.1, .
> Cc1ccccc1N1CCN(Cc2nc(Cc3ccccc3)no2)CC1
  ., ., 100, -1, i, 0.96, .
> Nn1c(CN2CCCCC2)nc2ccccc2c1=O
  27, 138, 101, -2, i, 0.83, -0.8
> COc1ccc(-c2nc3n(c2Br)CCC3)cc1
  ., ., 105, -7, i, 0.94, -2.7
> CCOC(=O)c1sc(NC(=O)CSc2nncn2C)nc1C
  ., ., 110, -3, i, 0.99, .
> Cc1ccc(S(=O)(=O)NCc2ccc(C(=O)NCCCN3CCC(Cc4ccccc4)CC3)cc2)cc1
  ., ., 100, -5, i, 0.63, .

Arranged by molar mass (highest first): part of the list above.
Values run as follows: INS promoter inh, INS promoter inh cell count, RGS16-Gao HTS, PKD1 inh, HSV augment, HSV augment primary fold, GALR2 agonist
> COC(=O)c1c(N2C(=O)CC(Sc3ccccc3C(=O)O)C2=O)sc2c1CCCC2 (stereo unspecified)
  33, 69, 101, -6, i, 1.1, .
> Cc1ccccc1N1CCN(Cc2nc(Cc3ccccc3)no2)CC1
  ., ., 100, -1, i, 0.96, .
> CCOC(=O)c1sc(NC(=O)CSc2nncn2C)nc1C
  ., ., 110, -3, i, 0.99, .
> COc1ccc(-c2nc3n(c2Br)CCC3)cc1
  ., ., 105, -7, i, 0.94, -2.7

Continuation:
Values run as follows: INS promoter inh, INS promoter inh cell count, RGS16-Gao HTS, PKD1 inh, HSV augment, HSV augment primary fold, GALR2 agonist
> O=C(CN1CCc2[nH]c3ccccc3c2C1)N1CCCCC1
  ., ., 86, -2, i, 1, -1.5
> O=C(Nc1ccccc1C(=O)N1CCOCC1)c1ccc(F)cc1
  4, 98, 98, -3, i, 0.99, -4.0
> CCOc1cc(-c2nc(-c3ccncc3)no2)cc(OCC)c1OCC
  -22, 125, 100, 1, i, 0.89, -4.6
> CCn1ncc(CNC(=O)CCSc2nc(-c3ccco3)cc(C(F)(F)F)n2)c1C
  -281, 46, 102, 0, i, 0.89, -0.4
> N#Cc1c(NC(=O)CSc2ncn[nH]2)sc2c1CCCCC2
  -12, 87, 102, -7, i, 0.94, -0.8
> CCOC(=O)c1sc(NC(=O)OC)c(C(=O)OC)c1C
  ., ., 99, 8, i, 0.99, .
> O=C(O)C1CC=CCC1C(=O)Nc1cccc(Cl)c1 (stereo unspecified)
  40, 108, 102, -2, i, 0.88, -1.0
> O=C(NCCc1ccccc1)c1ccc(NCC2CCCO2)c([N+](=O)[O-])c1 (stereo unspecified)
  57, 60, 100, -2, i, 0.81, .
> N#CCCn1cc(/C=C2\NC(=S)N(c3ccccc3)C2=O)c(-c2ccc(-c3ccccc3)cc2)n1
  -6, 98, 95, 3, i, 0.73, .
> C/C(=N\NC(=O)c1ccc(C)cc1)C1C(=O)c2ccccc2C1=O
  52, 104, 107, 1, i, 0.9, -0.5
> COc1cc(CC(=O)OCC(=O)Nc2cc(S(=O)(=O)N3CCCC3)ccc2Cl)cc(OC)c1OC
  -14, 144, 99, -4, i, 0.99, -0.2
> COc1cc(C)ccc1OCCON1C(=O)CCC1=O
  ., ., 106, -4, i, 0.88, .
> O=C(/C=C/c1c(Cl)cccc1Cl)NCc1ccccc1
  -10, 85, 84, -3, i, 0.85, 2.6
> COc1ccc(-n2c(NC(=O)c3ccco3)c(C#N)c3nc4ccccc4nc32)cc1
  ., ., 94, 9, i, 0.87, 11
> CN1CCN(c2ccc(NC(=O)c3ccc(Cl)cc3)cn2)CC1
  ., ., 90, 0, i, 0.96, .
> CCOC(=O)N1CCN(c2ccccc2O)CC1
  50, 143, 102, -1, i, 1, -1.3
> COc1ccccc1N(Cc1cc2cccc(C)c2[nH]c1=O)C(=O)C(C)C
  46, 56, ., 11, i, 0.87, -0.5
